Screens as filed in PubChem.
PINK1 modulator: modulators of PINK1 expression; PINK1 immunofluorescence, high-content cytometry, 24 h; Potency, µM (doses to about 76.6 µM), for the others: at the top dose activation (PINK1 increase), hits mostly activators; hit rate 0.2% among 410,000; active = well fitted activation curve with a large enough effect; inconclusive = small, poorly fitted or top-dose-only effect; inactive = flat fitted curve, though single readings scatter; cell line not stated here;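 note: potency is the fitted concentration of half-maximal effect; % of control where 0% means no effect; nearly all actives have a fitted effect of over 65% in size; a mitochondrial uncoupler was the plate control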
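Cells are seeded, rested 12 hours, then given compound at five concentrations or DMSO for 24 hours. After fixation, blocking and antibody staining, PINK1 amount and mitochondrial localization are scored; CCCP serves as control.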
ClpP mod: qHTS Assay for Activators of ClpP. purified B. subtilis ClpP, FRET peptide cleavage, 20 min. ATP-dependent Clp protease proteolytic subunit (Bacillus subtilis (strain 168)), P80244. Potency, µM (doses to about 57.5 µM), for inactives: at the highest dose activity change, negative = active. hit rate 1.9% among 340,000; active = well fitted falling curve with a large enough effect; inconclusive = small, poorly fitted or top-dose-only effect; inactive = no such curve, though single readings can be large or run the other way; note: potency is the fitted concentration of half-maximal effect; the source files actives as falling curves though it sought activators and does not explain the sign; nearly all actives have a fitted effect of over 65% in size; many hits overshoot -100%
Target sequence (P80244 whole entry, looked up): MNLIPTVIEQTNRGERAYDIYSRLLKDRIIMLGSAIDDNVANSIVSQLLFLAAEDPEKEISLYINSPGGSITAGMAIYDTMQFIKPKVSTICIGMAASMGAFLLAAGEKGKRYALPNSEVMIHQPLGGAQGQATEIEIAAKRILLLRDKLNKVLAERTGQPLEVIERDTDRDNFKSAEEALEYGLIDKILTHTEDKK
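Purified B. subtilis ClpP, 10 microg/mL final in Tris/HCl pH8 with KCl, BSA, glycerol and Tween-20, cleaved an Abz/nitrotyrosine-quenched decapeptide. Fluorescence (ex 320, em 430) was read at 0 and 20 min at room temperature. Delta was normalized to 5.8 microM ADEP and DMSO/no-enzyme controls.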
TRPML1 inh: inhibitors of human TRPML1 channel. TRPML1-inducible cells, Ca2+ dye fluorescence, FDSS; hits give low values; inhibition of EC80 agonist-evoked calcium signal. activity change, negative = inhibition, % (concentration not given with the values). Q9GZU1. hit rate 0.02% among 390,000; in the data active means activity change below about -50%; inconclusive means about -30% to -50%; inactive means above about -30%;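 note: stimulus is agonist 54-4 at its EC80 concentration; % is set by controls: 0 for no effect and ±100 for the full control effect; compound concentration not given in the record; the text of the record puts the active cut at -80%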
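TRPML1-DL cells, Tet-induced overnight (~16 h, 37 °C) at 1,500 cells/well, were loaded with Ca8 no-wash dye plus quencher for 45-90 min at room temperature. Compounds were pinned during FDSS kinetic reading; agonist 54-4 at EC80 (4 uM final) then added.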
TRPML1 agonist: activates the human TRPML1 channel; activation, % (no concentration beside the values); hit rate 0.12% among 410,000; TRPML1-expressing cells, Ca2+ dye fluorescence, FDSS; host cell line not named in the record; reference of the full effect not given here; in the data active = activation above about 50%; inconclusive = about 30% to 50%; inactive = below about 30%; note: 0% is about no effect; the text of the record puts the active cut at 80%
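Cells: TRPML1-DL, 1X Tet inducer, ~16 h at 37 degrees C/5% CO2. Dye: ABD Ca8 no-wash + quencher, 45-90 min RT. Read: 10 s baseline, compound add, 110 s agonist phase; 54-4 EC80 (4uM final), 110 s antagonist phase.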
Menin-MLL FL inh: menin-MLL binding inhibition, fluorescein peptide; FP activity change, % at 61.4 µM; 290,000 tested, under 10 active; Fluorescence polarization, fluorescein-MLL peptide displacement from menin; AID 1766; inconclusive = falling polarisation curve, or a change in total fluorescence; inactive = total fluorescence flat and polarisation flat or rising; no compound was filed as active; the % refers to the polarisation; negative = inhibition;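 note: % of control where 0% means no effect; inhibitors lower the polarisation; unlabelled MLL peptide was the positive control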
Sfp PPTase inh: blocks B. subtilis Sfp PPTase activity; Q9F4F7; Biochemical Sfp PPTase activity, qHTS; Potency, µM, for the others: max response, negative = inhibition, usual class: inhibitors; hit rate 3.5% among 310,000; AID 1490; active = well fitted inhibition curve with a large enough effect; inconclusive = small, poorly fitted or top-dose-only effect, or another doubt; inactive = no such curve, though single readings can be large or run the other way;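 note: the enzyme is Sfp with the accession as filed and its product quenches rhodamine fluorescence; potency is the fitted concentration of half-maximal effect; 0% = enzyme reaction without inhibitor and -100% = no enzyme wells; top concentration of the series not given in the record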
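Sfp 15 nM + cpd, 15 min RT; start w/ rhodamine-CoA 5 uM, BHQ-2-YbbR 12.5 uM (final); 50 mM Hepes pH 7.6, 10 mM MgCl2, 0.01% NP-40, 0.01% BSA; read 525/598 nm at 0 and 30 min.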
TRPV1 potentiator: human TRPV1 potentiation; Q8NER1; TRPV1-expressing cells, Fluo-8 calcium influx, capsaicin EC20 potentiation; host cell line not named in the record; control for the full effect not named in the record; potentiation, % at 8.33 µM; hit rate 0.02% among 320,000; AID 540277; active means potentiation above 80%; inconclusive means 30% to 80%; inactive means below 30%; note: 0% is about no effect
Target sequence (Q8NER1 whole entry, looked up): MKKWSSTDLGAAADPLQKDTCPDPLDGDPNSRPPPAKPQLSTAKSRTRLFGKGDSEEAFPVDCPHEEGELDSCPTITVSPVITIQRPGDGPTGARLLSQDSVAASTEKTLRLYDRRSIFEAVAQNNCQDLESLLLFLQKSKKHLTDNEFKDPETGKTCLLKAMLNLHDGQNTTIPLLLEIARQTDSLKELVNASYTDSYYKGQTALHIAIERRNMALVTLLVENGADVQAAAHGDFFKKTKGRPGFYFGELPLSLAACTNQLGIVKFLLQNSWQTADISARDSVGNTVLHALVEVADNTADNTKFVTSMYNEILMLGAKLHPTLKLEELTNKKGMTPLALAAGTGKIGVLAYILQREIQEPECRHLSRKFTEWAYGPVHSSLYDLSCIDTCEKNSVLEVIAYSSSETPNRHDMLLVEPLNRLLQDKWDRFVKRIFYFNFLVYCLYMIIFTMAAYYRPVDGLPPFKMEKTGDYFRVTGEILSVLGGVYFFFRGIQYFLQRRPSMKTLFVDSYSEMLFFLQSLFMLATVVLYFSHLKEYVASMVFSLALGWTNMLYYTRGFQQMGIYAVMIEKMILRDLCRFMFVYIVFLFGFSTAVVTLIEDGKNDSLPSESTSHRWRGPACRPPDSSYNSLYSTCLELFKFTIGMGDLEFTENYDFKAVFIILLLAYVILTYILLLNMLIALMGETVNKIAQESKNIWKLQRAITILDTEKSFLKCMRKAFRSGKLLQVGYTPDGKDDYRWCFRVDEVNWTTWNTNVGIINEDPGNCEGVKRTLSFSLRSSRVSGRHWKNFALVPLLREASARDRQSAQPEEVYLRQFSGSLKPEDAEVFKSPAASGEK
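Fluo-8 calcium influx in TRPV1-expressing cells, kinetic read (ex 480/em 520 nm). Compound added and read 3 min for agonist activity, followed by capsaicin at EC20 final and 2 min further read for enhancement.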
* marks the source's active call; other numbers are inactive results; ? = inconclusive; . = no result given; & = joins results of further samples; [ ] = dose if it differs, or a comment.

SMILES | PINK1 modulator | ClpP mod | TRPML1 inh | TRPML1 agonist | Menin-MLL FL inh | Sfp PPTase inh | TRPV1 potentiator
Nc1ccc(SCc2cccnc2)cc1 | 0.9% | . | 10 | -0.7 | -1.4 | -8% | -25
CCCCC(=O)Nc1ccc(NC(=O)C2CC2)cn1 | 0.5% | -0.4% | -13 | -0.5 | -2.0 | -5% | -3
CC1CCN(C(=O)CN2CC(C)Sc3ccccc32)CC1 (configuration not stated) | 2.3% | -5.4% | -4 | 1.3 | . | . | .
COc1cc(/C=C/C(=O)c2ccc3c(c2)OCCO3)cc(Br)c1OCC(=O)N(C)C | -2.2% | . | -24 | -0.4 | ? | -13% | 1
CCc1c(C)c2ccc(OCC(=O)OC(C)C)c(C)c2oc1=O | ? | 25µM* | 7 | 1.5 | -1.6 | 18% | -15
CC(C)Oc1ccccc1/C=N/NC(=O)c1ccccc1Cl | -1.3% | -16% | -16 | -0.6 | -0.6 | 8% | 2
O=C(Cc1ccccc1)NCC(=O)OCC(=O)c1ccc(F)cc1 | -0.8% | 0.3% | 2 | -0.5 | . | 4% | 12
CCn1c(SCC(=O)N2CCCCCC2)nc2ccccc2c1=O | 1.1% | . | -18 | 4.6 | -4.0 | 6% | -11
O=C(OCc1cc(=O)n2nc(C3CC3)sc2n1)c1ccc(NC(=O)c2ccccc2Cl)cc1 | 14% | 2.1% | ? | 2.0 | . | . | .
CC(C)(C)C(=O)Nc1nc2c(s1)CN(Cc1ccccc1)CC2 | 2.9% | . | 10 | 1.3 | 8.6 | -27% | 9
O=S(=O)(c1cc(C(F)(F)F)ccc1Cl)N1CCCCCC1 | 0.6%[38.3 µM] | 0.3% | 74 | 2.6 | -0.4 | ? | 1
CC(C)c1c(O)nc(SCC(=O)Nc2ccc3c(c2)CCC3)[nH]c1=O | 0.1% | 1.6% | 8 | -0.8 | 0.8 | 29% | -6
COc1ccc(NC(=O)C2Cc3ccccc3C(=O)O2)cc1 (configuration not stated) | 0.2% | -4.0% | 1 | -0.7 | 2.2 | 20% | -18
CC1CCC2C(=O)N(c3cccc(C(=O)Nc4ccc(F)cc4)c3)C(=O)C2C1 (configuration not stated) | 1.1% | -0.3% | -3 | -0.4 | -9.4 | 13% | -3
COc1cc(C(=O)NC(=S)Nc2cccc3nc(C)ccc23)cc(OC)c1OC | 8.4% | . | 2 | -0.3 | 3.0 | -5% | 29

Not a retest: entries from further up.
SMILES | PINK1 modulator | ClpP mod | TRPML1 inh | TRPML1 agonist | Menin-MLL FL inh | Sfp PPTase inh | TRPV1 potentiator
O=C(Cc1ccccc1)NCC(=O)OCC(=O)c1ccc(F)cc1 | -0.8% | 0.3% | 2 | -0.5 | . | 4% | 12
CCn1c(SCC(=O)N2CCCCCC2)nc2ccccc2c1=O | 1.1% | . | -18 | 4.6 | -4.0 | 6% | -11
O=C(OCc1cc(=O)n2nc(C3CC3)sc2n1)c1ccc(NC(=O)c2ccccc2Cl)cc1 | 14% | 2.1% | ? | 2.0 | . | . | .

(next part)
SMILES | PINK1 modulator | ClpP mod | TRPML1 inh | TRPML1 agonist | Menin-MLL FL inh | Sfp PPTase inh | TRPV1 potentiator
CC1(Cc2cccc(F)c2)C(=O)Nc2ccc(-c3cccnc3)cc21 (configuration not stated) | -1.1% | -4.7% | . | -0.3 | . | . | .
O=C(c1ccc2c(c1)N(Cc1cccc(Cl)c1)C(=O)c1ccccc1S2(=O)=O)N1CCCC1 | -0.1% | -3.0% | -6 | 0.2 | . | . | .
N#CC1=C(N)N(c2ccccc2)C(c2cccc([N+](=O)[O-])c2)C1(C#N)C#N (configuration not stated) | -2.7% | 1.1% | 11 | -0.2 | -1.2 | -7% | 4
Cc1cc(C)cc(-c2nnc(SCC(=O)NCC3CCCO3)o2)c1 (configuration not stated) | 0.8% | . | -12 | 0.3 | . | . | .
Cc1cc(C)c2c(CN3CCOCC3)cc(=O)oc2c1C | 4.8% | 0.7% | 2 | -0.5 | 1.8 | 6% | 4
C[C@@H](O)C1NC(=O)[C@H](CCCCN)NC(=O)c2cc([N+](=O)[O-])cc(I)c2OCC[C@@H](C(N)=O)NC1=O (some centres not stated) | 1.6% | -1.2% | -14 | 0.3 | 0.6 | 13% | 18
Cc1cccc(C(=O)Nc2nnc(S(=O)(=O)N(C)Cc3ccco3)s2)c1 | 2.2%&-0.3% | -1.1%&-7.0% | 0&-20 | -0.8&0.2 | . | -21% | 7
Cc1ccc(NC(=O)Cn2cc(C(=O)C3CC3)c3ccccc32)c(C)c1 | 3.6%&5.0% | 1.3% | 3&-3 | -0.2&0.5 | 0.4 | 6% | ?
Cc1cc(N/N=C/c2ccccc2O)nc(N2CCOCC2)n1 | 3.6% | . | -12 | 1.6 | -1.1 | -12% | -16
CC(=O)Nc1ccc(NC(=S)NC(=O)C2CC2)cc1 | -0.3% | -6.0% | -2 | 1.1 | 3.0 | -7% | 20
CCCn1cc(S(=O)(=O)c2ccccc2)c(=O)c2cc(F)c(N3CCCC3)cc21 | 0.0% | -18% | 10 | -0.6 | . | . | .
C=CC[n+]1c(C)csc1Nc1cccc(Br)c1 | 6.4% | . | -2 | 0.9 | -0.5 | -16% | 0
CCOC(=O)C1=C(C)N(C)C(=O)NC1c1ccc2c(c1)OCO2 (configuration not stated) | 0.8% | . | 1 | 0.8 | -0.9 | 11% | 20
Cc1sc2nc(SCC(N)=O)n(C)c(=O)c2c1C | 0.2% | -5.9% | -8 | -0.3 | 3.6 | 14% | -12
CC(CCc1ccc(O)cc1)NCc1ccc(Br)cc1 (configuration not stated) | -0.1% | 1.2% | 2 | 0.9 | -6.6 | 16% | 2
NCCCS(=O)(=O)O | 2.6%&-0.1% | -0.6%&-1.8% | -6&1 | 0.1&0.5 | 0.7&2.4&-4.8 | 5%&0% | -7&-2
O=C1Nc2ccccc2C1=Nc1cccc(Cl)c1 | -0.3% | 0.9% | -13 | -1.3 | 0.3 | 3% | 10
Cc1cc(Oc2ccc(Cl)cc2Cl)nc(C#N)n1 | 1.1% | -0.5% | . | -1.0 | . | . | .
CCCCN(C)CCN1C(=O)C2C(C(=O)Nc3cccc(OC)c3)C3C=CC2(O3)C1C(=O)NC1CCCCC1C (configuration not stated) | -0.2% | . | 15 | -0.1 | -7.5 | -9% | 2
Cc1ccc(SCCNC(=S)Nc2ccccc2)cc1 | 1.4% | -1.1% | 9 | 0.9 | 1.3 | 7% | 9
CCSC1(SCC)N=C(N)C2(C#N)C(c3ccccc3)NC(C)=CC12C#N (configuration not stated) | -1.3% | 16µM* | -13 | 0.1 | 0.0 | 13% | 0
CCOCC(=O)Nc1ccc(S(=O)(=O)N2CCOCC2)cc1 | 0.3% | -0.1% | 11 | -0.2 | 3.4 | 9% | -8
CCn1nc(C(=O)NNC(=O)c2cc(Cl)ccc2OC)c2ccccc2c1=O | 23% | 2.5% | 7 | 0.8 | . | . | 4
COc1ccc(C(=O)Nc2cccc(C(=O)NCc3ccccc3)c2)cc1 | -4.0% | -1.5% | 14 | 3.1 | -2.5 | 15% | 5
COC(=O)Cn1cc(C(=O)C(C)(C)C)c2ccccc21 | -1.8% | 0.3% | 16 | -0.6 | -3.9 | -2% | 0
O=C(O)c1ccc(S(=O)(=O)c2ccc3c(c2)C(=O)N(c2ccccc2[N+](=O)[O-])C3=O)cc1 | 1.1% | -5.3% | -1 | 0.0 | . | -5% | -5
O=C(c1ccc(=O)n(Cc2ccc(Cl)c(Cl)c2)c1)N1CCOCC1 | -0.3% | -0.6% | 20 | -0.2 | -0.2 | 4% | .
Cc1cc(=O)n2[nH]c(-c3ccccc3)cc2n1 | -0.5% | ? | 4 | 0.4 | -1.6 | -15% | -12
Cc1cc(NS(=O)(=O)Cc2ccccc2)no1 | -3.2% | -1.5% | 9 | -0.5 | 2.7 | 11% | -3
CC1(C)Cc2ccccc2C(NNC(=O)c2ccccc2)=N1 | -0.9% | 0.7% | 1 | -0.1 | 3.0 | 9% | 1
O=C(CSc1ncccc1C(=O)O)NCc1ccc(F)cc1 | 1.3% | 0.5% | 3 | 0.3 | 1.1 | 8% | 5
COC(=O)c1sc(NC(=O)CSc2nc3nc(C)cc(C)n3n2)c(C(=O)OC)c1C | 0.2% | . | 1 | 0.2 | . | . | .
O=C(O)c1cc(O)ccc1NC(=O)c1cccc2ccccc12 | 4.1% | . | -7 | 1.5 | 5.1 | 6% | -5
Cc1ccc(NC(=O)c2ccc3nc(N4CCOCC4)sc3c2)c(Cl)c1 | 2.9% | -21% | -13 | -0.5 | 2.5 | 50µM* | -5
Cc1cccc(NC(=S)NNC(=O)c2ccccc2Br)c1 | 0.2% | -3.1% | 8 | -1.0 | . | -4% | 19
C(=C\c1ccccc1)/CN1CCN(C(c2ccnc3ccccc23)c2nnnn2-c2ccc3c(c2)OCCO3)CC1 (configuration not stated) | 3.9% | 0.7% | -6 | 0.2 | . | . | .
Nc1cc2nc3ccccc3oc-2cc1=O | 0.5% | -8.9% | . | . | ? | 22µM* | -1
CC(C)N(Cc1nccn1C)C(=O)c1cc(COc2ccc(-n3cncn3)cc2)on1 | 0.4% | 1.4% | -2 | -0.3 | . | . | .
CN(C)c1nc(N)c(C(=O)N=C(N)N)nc1Cl | 2.6% | -18% | -8 | -0.6 | 1.7 | . | .
CCc1ccc(-c2cc(C)no2)cc1S(=O)(=O)NCc1ccccc1OC | 0.3% | -1.6% | 14 | 3.9 | -1.3 | -1% | -18
CCOc1ccc(CCNS(=O)(=O)c2cccc3nsnc23)cc1OCC | -0.8% | 0.7% | 5 | -0.4 | 0.0 | 10% | 0
Cc1cc(C)n2nc(C(=O)OCC(=O)N(CC(C)C)C3CCS(=O)(=O)C3)nc2n1 (configuration not stated) | 0.9% | . | 15 | -0.4 | . | . | .
O=C(CCC1=NS(=O)(=O)c2ccccc2N1)NC1CCCCCCC1 | -2.7% | -8.4% | -25 | 3.2 | -2.3 | 10% | 11
CCN1C(=O)c2ccc(C(=O)Nc3ncc(C)s3)cc2C1=O | -0.2% | -2.1% | 9 | 0.3 | -2.7 | 5% | -1

No enrichment for hits; overall some 4.4% were active at least once.
